# Mtb H37Rv: M. tuberculosis H37Rv growth inhibitors, H37Rv strain (AID 1626). one-dose inhibition, % at 10 µM; IC50 in µM for titrated hits. M. tuberculosis H37Rv growth inhibition; higher % means a stronger effect. 220,000 compounds, 0.95% hits;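 active = confirmed in a dose series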;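 note: bacteria incubated seven days before Alamar blue readout; 0% = bacteria only wells and 100% = bacteria with antibiotic wells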
# YopH inh: YopH tyrosine phosphatase inhibitors, primary screen, biochemical, fluorescence Ex485/Em525 | YopH tyrosine phosphatase [Yersinia enterocolitica] | inhibition, %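 (about 10 µM by stock and volumes)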 | 140,000 compounds, 0.16% hits | AID 898, 2007;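 active = inhibition of 50% or more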;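 note: controls were vehicle for no effect and minimum signal wells for full effect; inactives centre near -20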
# Mtb betalactam: beta-lactam sensitization of Mtb H37Rv, H37Rv; AID 434955, 2010; 330,000 compounds, 0.27% hits; inhibition, % at 25 µM; M. tuberculosis H37Rv growth with meropenem, percent inhibition; hits of this screen are not shown here;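 active = about 74% or more and at least 40 points above the plate without the antibiotic, then above 30% in a dose series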;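 note: growth measured after seven days incubation then overnight dye step; 0% = bacteria only wells and 100% = bacteria with antibiotic; twin plates without the antibiotic show which effects depend on it; some results filed as inactive read as strong as hits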
# RecA splice inh: Mtb RecA intein splicing inhibitors, primary screen, biochemical, fluorescence, HTS; Protein RecA (Mycobacterium tuberculosis (strain ATCC 25618 / H37Rv)), P9WHJ3; cell-free RecA intein splicing; inhibition, %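 (about 9 µM by stock and volumes)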; 290,000 compounds, 0.75% hits; in the data active = inhibition above about 30%;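 note: 0% = vehicle wells and 100% = reference inhibitor control wells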
# Target sequence (P9WHJ3 whole entry, looked up, canonical isoform): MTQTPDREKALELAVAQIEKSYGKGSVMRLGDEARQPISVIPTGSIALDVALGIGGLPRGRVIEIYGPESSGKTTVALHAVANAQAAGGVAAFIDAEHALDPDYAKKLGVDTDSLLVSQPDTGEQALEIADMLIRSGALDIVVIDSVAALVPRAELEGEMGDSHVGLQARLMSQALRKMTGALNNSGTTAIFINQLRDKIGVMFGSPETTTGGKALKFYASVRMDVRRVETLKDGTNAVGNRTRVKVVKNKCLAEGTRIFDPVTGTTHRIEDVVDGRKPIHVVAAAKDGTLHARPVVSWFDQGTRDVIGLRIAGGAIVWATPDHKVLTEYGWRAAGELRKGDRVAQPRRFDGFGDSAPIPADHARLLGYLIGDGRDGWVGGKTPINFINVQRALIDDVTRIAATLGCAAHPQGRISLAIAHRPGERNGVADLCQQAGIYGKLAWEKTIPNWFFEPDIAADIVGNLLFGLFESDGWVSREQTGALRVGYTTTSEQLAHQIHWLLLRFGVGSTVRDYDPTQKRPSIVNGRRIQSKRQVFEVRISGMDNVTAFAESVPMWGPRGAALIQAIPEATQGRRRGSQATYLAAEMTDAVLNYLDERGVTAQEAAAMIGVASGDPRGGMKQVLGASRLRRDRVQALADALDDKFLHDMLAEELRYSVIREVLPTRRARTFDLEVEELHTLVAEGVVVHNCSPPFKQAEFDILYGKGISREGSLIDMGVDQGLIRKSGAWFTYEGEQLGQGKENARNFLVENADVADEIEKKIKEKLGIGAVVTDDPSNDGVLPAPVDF
# Arbovirus inh: antivirals against arbovirus infection, primary screen, cell-based, full library, 10K replicate subset; inhibition, % at 10 µM; arbovirus infection cell-based antiviral screen; AID 1251, 2008; 200,000 compounds, 0.37% hits;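 active = inhibition from about 30%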;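 note: bluetongue infection of BSR cells; cell survival read as ATP light after 72 h; 0% = infected wells without compound and 100% = uninfected wells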
# Arbovirus inh repeat: recorded beside Arbovirus inh, whose call it bears; inhibition, %; measured here: 10K subset replicate screen; many hits read low in the repeat;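 first of two repeat runs on a subset; 0% = infected and 100% = uninfected wells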
# The depositor's hits bear a star; x = no result given. Not all compounds are listed, so the mix of outcomes need not match the whole.
SMILES,Mtb H37Rv,YopH inh,Mtb betalactam,RecA splice inh,Arbovirus inh,others
CCOc1ccc(S(=O)(=O)Nc2ccc(C(=O)NNC(=O)c3ccncc3)cc2)cc1,x,x,-12,-1.3,x,
CN(C)/C(=N\OC(=O)c1ccccc1)c1nonc1N,7%,-41,4,4.9,-3,
O=C(CN1CCN(Cc2ccc(Cl)cc2)C1=O)NCCCN1CCOCC1,2%,-44,-2,-1.1,0,
COc1ccc(-n2ncc3c(N4CCCCC4)ncnc32)cc1,22%,-27,79,3.3,-8,Arbovirus inh repeat=1
O=C(c1ccco1)N1CCN(C(=O)c2ccc(CS(=O)c3ccc(F)cc3)o2)CC1 (stereo not drawn),x,x,3,-2.0,x,
COC(=O)NCC(c1cccnc1)N1CCN(c2ccccc2OC)CC1 (stereo not drawn),-6%,2,-11,-0.9,9,
O=C(N/N=C/c1ccc2c(c1)OCO2)c1ccc(NC(=O)c2ccc(F)cc2)cc1,x,x,1,-2.8,x,
COc1ccc(Cl)cc1S(=O)(=O)n1nnc2ccccc21,2%,-14,-12,1.9,7,
COCCNC(=O)CCCn1c(=O)c2ccccc2n(CC(=O)NCCC2=CCCCC2)c1=O,1%,-42,x,3.0,7,
Cc1nc(C(=O)NCCC(C)C)sc1C1(C)CC(c2ccccc2)=NO1 (stereo not drawn),-3%,x,3,-7.5,x,
O=C(CSC1=Nc2ccccc2C2=NC(Cc3c[nH]c4ccccc34)C(=O)N12)NC1CCCCC1 (stereo not drawn),-1%,0,6,6.2,-20,
Cc1c(Cl)cccc1NC(=O)Cn1cccc1,-6%,-40,-11,0.6,-6,
Cc1ccsc1/C=N/NC(=O)CNC(=O)c1cccc([N+](=O)[O-])c1C,0%,x,-5,1.9,7,
CC(C)CCNCC(O)CON=C1c2ccccc2-c2ccccc21 (stereo not drawn),52%,x,99,1.9,-33,
O=C(CCCN1C(=O)c2cccnc2C1=O)N1CC(=O)N(CCc2ccccc2)C(=O)C1,-1%,-43,-5,x,5,
CN1C[C@@H]2C(c3ccc(Cl)nc3)C3(c4cccnc4)CC2(C3)[C@H]1c1ccccc1 (stereo partly drawn),-3%,x,-3,-0.5,x,
CCc1ccc(NS(=O)(=O)c2ccc3[nH]c(=O)[nH]c3c2)cc1,6%,x,-4,1.6,-6,
C=CCn1c(-c2ccc(N)cc2)nc2ccccc21,-1%,-46,1,1.9,-1,Arbovirus inh repeat=-6
Oc1ccc(C2C(c3ccccc3)=NN=C(c3ccc(Cl)cc3)N2O)c(O)c1 (stereo not drawn),8%,-17,16,2.8,15,
Cc1c(N(C(=O)Cc2cccs2)C2(C(=O)NC3CCCC3)CCCCC2)c(=O)n(-c2ccccc2)n1C,1%,x,-8,1.5,1,
CNC(=O)CCn1nc(-c2ccccc2)c2ccccc2c1=O,2%,-9,-4,0.4,2,
O=C(Nc1ccc(O)c(-c2nc3ccccc3o2)c1)C1(c2ccc(Br)cc2)CCCC1,0%,-40,-1,-4.4,-3,
CCOc1ccccc1NC(=O)C1CCN(C(=O)C2CC(=O)N(c3ccc(C)cc3)C2)CC1 (stereo not drawn),x,x,5,0.5,x,
CCCCSC1=C(C#N)C(c2ccccc2C)CC(=O)N1 (stereo not drawn),1%,-47,2,0.8,0,Arbovirus inh repeat=-1
O=C(NCC1CCCO1)c1cccc(C(=O)NCC2CCCO2)c1 (stereo not drawn),x,x,-3,-0.9,x,
CC(C)CNC(=O)CSc1nc2nn(-c3ccccc3)c(=O)c-2c2n1CCCCC2,0%,x,-5,-2.6,11,
COc1cc(C(CC(=O)Nc2ccc(Cl)cn2)N2Cc3ccccc3C2=O)cc(OC)c1OC (stereo not drawn),x,x,-5,1.3,x,
Cc1cc2c(c(SCC(=O)NCCc3ccccc3)n1)C(=O)OC2,-6%,-8,-13,-0.3,-3,
C=CCC1NS(=O)(=O)OC(COC)C1C (stereo not drawn),x,x,-6,-1.8,x,
O=C(O)c1ccccc1C(=O)c1ccc2c(c1)CCC2,x,x,5,-5.1,x,
Cc1c(Cc2ccccc2)sc(N)c1C(N)=O,-7%,7,-7,2.0,-22,
Cc1ccc(NC(=O)CN(C)C(=O)CSc2nncn2C)cc1,-4%,-11,-3,-0.4,6,
CC(=O)OCC(=O)NCC(=O)c1c[nH]c2ccccc12,7%,-7,-2,-0.7,-3,
CC(=O)NC(Cc1ccc(F)c(F)c1)C(=O)NC1CCN(c2nnnn2-c2ccccc2)CC1 (stereo not drawn),-2%,x,3,11,-1,
C=CC(O)(C#CCN(CC)CC)c1ccccc1 (stereo not drawn),-7%,-10,9,x,0,
CCN1C(=O)[C@H]2[C@@H](c3ccc(C)cc3)N3C(=O)N(c4ccccc4)C(=O)[C@@]3(Cc3ccc(Cl)cc3)[C@H]2C1=O,x,x,-11,3.8,x,
O=C(O)c1cccc(S(=O)(=O)Nc2ccc3[nH]c(=O)[nH]c3c2)c1,-4%,x,-5,-4.4,x,
Cn1c(=S)n(/N=C/c2ccc3c(c2)OCO3)c2ccccc21,1%,-38,9,x,0,
CC(=O)Nc1ccc(C(=O)c2ccccc2)cc1,4%,-20,17,1.6,-4,Arbovirus inh repeat=0
O=C(Nc1c2c(nn1-c1ccc(F)cc1)CS(=O)(=O)C2)c1ccc(S(=O)(=O)N2CCOCC2)cc1,2%,x,-2,x,0,
COc1ccccc1C(=O)OCCN1CCOCC1,4%,3,3,-1.5,5,
O=C(O)CC(c1ccccc1F)N1Cc2ccccc2C1=O (stereo not drawn),x,x,-5,-0.5,x,
O=C1Nc2cc(C(=O)N3CCOCC3)ccc2SC1N1CCOCC1 (stereo not drawn),x,-2,-3,0.3,-7,
O=C(NNC1=NCCCCC1)c1ccccc1,-8%,-34,15,-0.7,5,
COc1ccc(OCC(=O)NNC(=O)c2cc3ccccc3o2)cc1,1%,-9,2,1.7,4,
Fc1cccc(CN2CCN(c3nc4nonc4nc3NC3CC3)CC2)c1,-1%,x,6,-0.2,6,
COc1cccc(C2(O)CCN(CC(=O)Nc3nc(C)cs3)CC2)c1,2%,x,-1,x,0,
CCN1C(=O)N[C@@H](CCc2ccccc2)C(C(C)=O)=C1C,-9%,x,0,0.1,x,
COc1ccc(-n2nc3c(c2NC(=O)C(C)Oc2ccccc2)CS(=O)(=O)C3)cc1 (stereo not drawn),x,x,2,-0.6,x,
N#CC1(NC(=O)COC(=O)CN2C(=O)c3ccccc3C2=O)CCCCC1,x,x,3,-1.0,x,
# (continued)
SMILES,Mtb H37Rv,YopH inh,Mtb betalactam,RecA splice inh,Arbovirus inh,others
CC1(C(=O)NCc2ccc(Cl)c(Cl)c2)Oc2cccnc2NC1=O (stereo not drawn),10%,x,1,-1.1,-1,
O=C(CSc1nnc(COc2cccc3cccnc23)o1)N1CCc2ccccc21,2%,10,42,4.3,0,
O=C(C(=O)N1CCN(c2ccccc2)CC1)c1c[nH]c2ccccc12,8%,x,3,1.7,4,
Cc1cc(C)c(OCCCCNCc2ccccc2)c(Cl)c1,-4%,-25,69,1.1,-34,
COc1ccc(OC)c(N(CC(=O)N2CCCC2)S(=O)(=O)c2ccc(C)cc2)c1,x,x,10,2.0,x,
COc1cc(NC2CCCCC2O)c2nc(-c3ccc(Cl)cc3)ccc2c1 (stereo not drawn),40%,x,21,51*,x,
CCc1nn(C(C)C(=O)NCCN2CCCCCC2)c(=O)c2cc3occc3n12 (stereo not drawn),x,x,-11,11,x,
CS(=O)(=O)N(CC(=O)N/N=C/c1ccco1)c1ccccc1Br,-5%,-20,0,-0.8,5,
Cc1ccc(N2C(=O)CC(N(CCc3ccccc3)C(=S)Nc3ccc(N(C)C)cc3)C2=O)cc1 (stereo not drawn),11%,-33,68,-1.4,-16,
COC(=O)CC1c2ccccc2S(=O)(=O)N1Cc1ccccc1 (stereo not drawn),16%,x,0,1.1,x,
CCCc1cc(C(=O)NCc2ccccc2)no1,10%,-27,-3,-1.0,-1,
O=C(Cc1ccccc1)N/N=C/c1ccc(-c2ccc([N+](=O)[O-])cc2)o1,15%,-47,2,-1.9,-1,
Cc1cccc(C)c1OC(=O)C(c1ccccc1)c1ccccc1,2%,-18,6,2.2,-2,
COCCN(Cc1cc2cc(C)ccc2nc1Cl)C(=O)Nc1ccccc1C,0%,-28,3,-0.3,6,
Cc1cc(O)ccc1NC(=S)NC(=O)c1cncc(Br)c1,x,x,72,-5.2,x,
Cc1nc(Nc2ccccc2C(F)(F)F)sc1C(=O)N(C)C,5%,x,-8,0.7,1,
CCOc1ccccc1NC(=O)Cn1c(=O)n(-c2ccccc2)c(=O)c2oc3ccccc3c21,-14%,-10,-2,1.5,-10,
Cc1cc(-c2cc(C(=O)Nc3ccccc3)on2)nc(NC2CCCC2)n1,52%,x,97,7.8,x,
O=C(Nc1ccc(OC(=O)N2CCCC2)cc1)N1CCOCC1,-6%,-122,-8,-0.4,-2,
COc1ccc(C2NC(=O)N(C)C3=C2C(=O)CC(C)(C)C3)cc1OC (stereo not drawn),-1%,-14,-4,-0.6,10,
CCOCCCNS(=O)(=O)c1ccc2c(c1)CCN2C(C)=O,-3%,-13,0,-0.8,9,
Cn1cccc1/C=C1\SC(=S)N(NC(=O)c2cccc(Cl)c2)C1=O,4%,-22,7,x,-17,
O=C(NC(=S)Nc1ccccn1)c1ccccc1,9%,x,10,1.7,x,
Cc1ccc(S(C)(=O)=N/C=C2\C(=O)c3sccc3N(C)S2(=O)=O)cc1 (stereo not drawn),x,x,0,0.9,x,
O=C(Cc1ccccc1F)NCC(c1ccco1)N1CCCCC1 (stereo not drawn),2%,x,0,0.8,9,
Nc1nonc1-c1nc2ccccc2n1CC(=O)O,-12%,-14,-6,1.9,4,
C/C=C/C=C/C(=O)N1CC2(CC(c3cccc(NC(=O)/C=C/C)c3)=NO2)C[C@@H]1C(N)=O (stereo partly drawn),-6%,x,-4,-2.0,x,
CCN(c1cccc(C)c1)S(=O)(=O)c1ccc2c(c1)N(C(C)=O)CCS2,x,x,-9,4.1,x,
Cc1cccc(NC(=O)c2ccc(C)c(S(=O)(=O)N3CCCCC3)c2)n1,x,x,-1,2.1,x,
COc1ccc(-c2ccc3oc(-c4ccc(OC)cc4)c(C#CCO)c3c2)cc1,3%,x,13,0.9,x,

# Screening data from PubChem BioAssay.
